Source: PubChem
CtBP-E1A inh: qHTS Assay for Inhibitors of the CtBP/E1A Interaction. AID 651724, 2012. hit rate 0.49% among 340,000. CtBP / adenovirus E1A interaction (AlphaScreen). activity change, % (test concentration not listed). AlphaScreen GST-E1A/His-CtBP binding, 1536-well; active compounds read low; control for the full effect not named in the record; in the data active means activity change below about -65%; inconclusive means about -30% to -65%; inactive means above about -30%; note: % is set by controls: 0 for no effect and ±100 for the full control effect
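Steps: dispense buffer (Tris pH 8.0, NaCl 300 mM, TCEP 1 mM, BSA, Tween 20); add 5X protein mix (GST-E1A, His-CtBP, 125 nM each); pin 23 nL compound; 2 h at 37 °C, dark; add 5X beads (50 ug/mL); 1 h; read.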
TRPV1 potentiator: HTS Assay for Compounds that Act as Potentiators of the Vanilloid Receptor 1; potentiation, % at 8.33 µM; TRPV1-expressing cells, Fluo-8 calcium influx, capsaicin EC20 potentiation; host cell line not named in the record; control for the full effect not named in the record; Transient receptor potential cation channel subfamily V member 1 (Homo sapiens), Q8NER1; hit rate 0.02% among 320,000; active means potentiation above 80%; inconclusive means 30% to 80%; inactive means below 30%; note: 0% is about no effect
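Cells expressing TRPV1 were dye-loaded with Fluo-8 and read kinetically: 10 s baseline, 3 min after compound (agonist portion), then 2 min after EC20 capsaicin (allosteric enhancer portion). Calcium-bound dye fluorescence at 480/520 nm.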
PINK1 expr mod: A Quantitative High throughput Screen to Identify Chemical Modulators of PINK1 Expression; PINK1 immunofluorescence, high-content cytometry, 24 h; Potency, µM (series often up to 76.6 µM), inactives show at the highest dose activation (PINK1 increase), hits mostly activators; hit rate 0.2% among 410,000; AID 624263, 2012; active = well fitted activation curve with a large enough effect; inconclusive = small, poorly fitted or top-dose-only effect; inactive = flat fitted curve, though single readings scatter; cell line not stated here;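 note: potency is the fitted concentration of half-maximal effect; % of control where 0% means no effect; nearly all actives have a fitted effect of over 65% in size; a mitochondrial uncoupler was the plate control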
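PINK1 protein, normally rapidly degraded, was detected by immunofluorescence after 24 hour compound treatment of a stable cell line. Titration data (5 concentrations) came from laser-scanning cytometry, with CCCP-treated wells as controls.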
Sfp inh: qHTS Assay for Inhibitors of Bacillus subtilis Sfp phosphopantetheinyl transferase (PPTase) | 4'-phosphopantetheinyl transferase ffp (Bacillus subtilis), Q9F4F7 | Biochemical Sfp PPTase activity, qHTS | Potency, µM, without a hit: max response, negative = inhibition, usual class: inhibitors | hit rate 3.5% among 310,000; active = well fitted inhibition curve with a large enough effect; inconclusive = small, poorly fitted or top-dose-only effect, or another doubt; inactive = no such curve, though single readings can be large or run the other way;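 note: the enzyme is Sfp with the accession as filed and its product quenches rhodamine fluorescence; potency is the fitted concentration of half-maximal effect; 0% = enzyme reaction without inhibitor and -100% = no enzyme wells; top concentration of the series not given in the record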
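Fluorescence-quenching assay: 15 nM Sfp-PPTase preincubated 15 min at room temperature with compound, then 5 uM rhodamine-CoA and 12.5 uM BHQ-2-labelled YbbR peptide added. Fluorescence (ex 525/em 598 nm) read at start and after 30 min; difference gives rate.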
Six1-Eya2 inh: qHTS Assay for Inhibitors of the Six1/Eya2 Interaction; Homeobox protein SIX1 (Homo sapiens) + Protein phosphatase EYA2 (Homo sapiens), …; AlphaScreen GST-Six1/His-Eya2 binding, biochemical; active compounds read low; control for the full effect not named in the record; activity change, % (test concentration not listed); hit rate 0.56% among 360,000; in the data active = activity change below about -65%; inconclusive = about -30% to -65%; inactive = above about -30%; note: % is set by controls: 0 for no effect and ±100 for the full control effect
Target sequence (O00167 whole entry, looked up): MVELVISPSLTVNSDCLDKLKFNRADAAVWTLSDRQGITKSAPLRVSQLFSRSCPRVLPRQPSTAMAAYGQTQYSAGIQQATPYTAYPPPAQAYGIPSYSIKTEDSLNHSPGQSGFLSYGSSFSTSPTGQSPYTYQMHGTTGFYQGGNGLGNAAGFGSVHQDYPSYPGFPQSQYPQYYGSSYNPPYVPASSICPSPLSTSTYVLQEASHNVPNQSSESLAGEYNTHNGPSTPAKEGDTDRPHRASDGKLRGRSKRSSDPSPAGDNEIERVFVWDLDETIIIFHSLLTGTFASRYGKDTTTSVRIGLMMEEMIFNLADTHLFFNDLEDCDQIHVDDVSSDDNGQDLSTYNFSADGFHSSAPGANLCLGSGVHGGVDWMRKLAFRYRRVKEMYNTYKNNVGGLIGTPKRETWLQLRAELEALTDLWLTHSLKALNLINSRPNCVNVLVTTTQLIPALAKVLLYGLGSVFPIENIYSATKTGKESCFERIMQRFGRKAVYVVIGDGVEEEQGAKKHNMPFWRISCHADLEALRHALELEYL
Target sequence (Q15475 whole entry, looked up): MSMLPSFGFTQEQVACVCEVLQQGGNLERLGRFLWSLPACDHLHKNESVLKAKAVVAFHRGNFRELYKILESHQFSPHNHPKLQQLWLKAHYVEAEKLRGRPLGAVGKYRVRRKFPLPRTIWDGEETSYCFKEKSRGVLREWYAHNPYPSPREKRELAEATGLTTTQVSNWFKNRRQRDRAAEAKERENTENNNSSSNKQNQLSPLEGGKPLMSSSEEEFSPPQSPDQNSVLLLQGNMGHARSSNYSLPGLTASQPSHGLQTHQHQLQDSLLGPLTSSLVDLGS
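Compounds are tested against tagged Six1 and Eya2 proteins bridged by glutathione donor and nickel acceptor beads; after a one-hour incubation at 37 °C without light, AlphaScreen emission is recorded.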
D2 potentiator: Beta-Arrestin HTS for Positive Allosteric Modulators of the Human D2 Dopamine Receptor: Potentiators; potentiation, % (test concentration not listed); AID 624464, 2012; DiscoveRx D2 beta-arrestin cells, luminescence, 90 min; 100% = 57 uM dopamine signal; D(2) dopamine receptor (Homo sapiens), P14416; hit rate 0.23% among 360,000; active = potentiation of 50% or more; inconclusive = 30% to 50%; inactive = 30% or less;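 note: compound concentration not given in the record; tested on top of an EC20 dose of dopamine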
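PathHunter D2 cells, attached overnight at 37 deg C, received compound in DMSO plus dopamine at EC20 (50 nM final) for 90 min at 37 deg C. Beta-arrestin recruitment was read as luminescence after 1 h with detection reagent at ambient temperature.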
D2 agonist: Beta-Arrestin HTS for Positive Allosteric Modulators of the Human D2 Dopamine Receptor: Agonists | AID 624465, 2012 | activation, % (test concentration not listed) | DiscoveRx PathHunter D2 beta-arrestin, luminescence, 90 min; 100% = 57 uM dopamine signal | D(2) dopamine receptor (Homo sapiens), P14416 | hit rate 0.084% among 360,000; in the data active = activation above about 40%; inconclusive = about 15% to 40%; inactive = below about 15%; note: compound concentration not given in the record; the text of the record calls up to 30% inactive
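DiscoveRx PathHunter D2 beta-arrestin cells (2,100/well) attached overnight, then compound-stimulated 90 min at 37 C in HBSS/10 mM HEPES/0.1% Tween-20 buffer; beta-galactosidase complementation read by luminescence after 1 h at ambient temperature. Dopamine 57 uM final (EC100) as control.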
* = called active by the depositor; ? = inconclusive; nt = no result given; & = joins results of further samples; [ ] = dose if it differs, or a comment. This is a random part of the collection. About 3.7% of those tested had a hit in this group.

SMILES	CtBP-E1A inh	TRPV1 potentiator	PINK1 expr mod	Sfp inh	Six1-Eya2 inh	D2 potentiator	D2 agonist
COc1ccc(CCNC(=O)C2CCCN(C(=O)N(C)C)C2)c(OC)c1 (centres undefined)	0.7	8.5	?	15.3%	1.7	-0.5	-0.3
Cc1cc(C(=O)N2CCC(Cc3ccccc3)CC2)c(C)o1	-3.0	-8.0	3.6%	7.0%	2.4	-18.2	0.5
CCN(CC)C(=O)CSc1nnc(-n2nc(C)cc2C)c2ccccc12	4.9	6.3	7.0%[38.3 µM]	9.6%	6.6	-5.6	1.1
COC(=O)c1cc2c(s1)CS(=O)C2 (centres undefined)	6.0	-7.6	0.1%	11.3%	7.1	-12.3	-2.3
CN(Cc1ccccc1)C(=O)c1[nH]cnc1C(=O)Nc1ccc(Cl)cc1	1.8	0.0	24.6%	nt	-1.5	-16.3	-6.1
Cc1ccc(NC(=O)c2ccccc2NC(=O)c2cccnc2)cc1	12.1	-26.2	-0.5%	-7.3%	1.3	-3.1	-2.2
O=C(NCCC1=CCCCC1)C1CC(=O)N(C2CCCCC2)C1 (centres undefined)	8.5	-1.2	nt	10.1%	-0.3	-5.9	-2.5
CCOC(=O)Cn1nc(C)c(NC(=O)c2ccc([N+](=O)[O-])c(C)c2)c1C	4.9	1.6	1.5%	17.6%	-1.3	6.9	0.9
COC(=O)c1ccc(-n2nnnc2SCc2ccccc2OC)cc1	16.6	-5.8	0.7%	-3.7%	20.5	-3.9	-2.1
Cc1ccc2cc3cc(C(=O)N4CCCCC4C)oc3nc2c1 (centres undefined)	3.2	nt	4.5%	-3.8%	-1.5	0.8	-1.8
Cc1ccccc1Nc1nc(N)nc(COC(=O)c2ccc(S(=O)(=O)N(C)C)cc2)n1	-0.8	3.7	3.1%	5.2%	-3.6	-24.5	-2.2
CC(C)n1c(=O)[nH]c2cc(C(=O)Nc3ccccc3)ccc21	-2.1	8.4	-1.1%	16.5%	-1.3	0.3	4.2
Oc1ccc(-c2n[nH]c(=S)n2Cc2ccco2)cc1	8.9	2.2	14.0%[38.3 µM]	-1.8%	-10.2	-18.2	-2.3
O=C(O)C1C2C=CC(C2)C1C(=O)NCc1ccccc1 (centres undefined)	5.3	-16.9	1.2%	nt	-3.7	-8.0	-0.8
Cc1cc(NC(=O)C2C3C(=O)N(c4cccnc4)C(C(=O)NC(C)(C)C)C34C=CC2(C)O4)no1 (centres undefined)	2.5	8.9	1.8%	13.7%	-21.7	-6.3	-1.0
Cc1cc(C)c(C#N)c(SCSCc2ccccc2)n1	-1.9	15.0	nt	20µM*	43.2	-6.1	-4.5
O=C(O)c1ccccc1Sc1ncnc2sc3c(c12)CCC3	-0.5	3.2	-1.6%	6.4%	-6.5	1.9	-2.8
CCN(CC)CCN(Cc1cc2cc3c(cc2[nH]c1=O)OCCO3)C(=S)NCCCOC	2.7	-3.0	-0.5%	8.9%	-9.9	-4.9	0.9
CN1C(=O)c2cccc(NCCCN3C(=O)c4ccccc4C3=O)c2C1=O	-10.3	-14.3	7.08µM*	7.7%	-12.4	14.5	-3.2
CCOc1cc(N2CCOCC2)c(OCC)cc1NC(=O)C1CC(=O)N(c2ccc(C)cc2)C1 (centres undefined)	4.8	1.8	0.6%	nt	-1.1	-0.9	-4.5
Cc1ccc(-n2nnnc2SCC(=O)Nc2ccccc2-c2ccccc2)cc1C	3.0	9.6	0.5%	-12.0%	3.8	-12.2	1.1
c1cn2c(Nc3ccc4c(c3)OCCO4)c(-c3ccc(N4CCOCC4)cc3)nc2cn1	-16.8	-33.5	-1.6%	-15.3%	-7.2	2.8	3.5
Cc1ccc(N(Cc2ccc(C(=O)Nc3ccccc3C(=O)NCc3ccco3)cc2)S(C)(=O)=O)cc1C	-3.9	-32.4	-1.0%[38.3 µM]	1.1%	-3.8	0.4	1.5
Cc1nnc(SCc2cc(=O)[nH]c(/N=C(\N)Nc3ccccc3)n2)s1	2.8	-2.6	9.2%	-12.6%	-6.6	-3.9	-1.5
COc1cccc(/C=N/NC(=O)CCc2ccccc2)c1	4.1	-10.1	2.9%[38.3 µM]	6.9%	-1.5	1.4	0.6
New compounds follow.
SMILES	CtBP-E1A inh	TRPV1 potentiator	PINK1 expr mod	Sfp inh	Six1-Eya2 inh	D2 potentiator	D2 agonist
O=C(CSc1nc2[nH]ncc2c(=O)n1-c1ccccc1)NCc1cccs1	10.6	12.6	-0.3%	-0.2%	-10.2	-5.8	-2.9
O=C(Nc1ccc(F)cc1)NC1CCN(Cc2c(F)cccc2Cl)CC1	-13.5	nt	-2.1%	18.4%	-6.6	-13.2	-0.6
CCc1cc(C(=O)N2CCN(c3ncc(C(F)(F)F)cc3Cl)CC2)sc1C	6.8	-5.8	10.9%	-7.5%	1.3	-5.9	-1.8
O=C(NCC(c1cccs1)N1CCOCC1)c1cccnc1 (centres undefined)	9.4	22.3	-0.2%	3.0%	-1.3	-6.9	3.1
O=C(O)C1CCCN1c1nc(C(F)(F)F)nc2ccccc12 (centres undefined)	4.7	0.7	4.5%	5.2%	5.2	-3.4	1.4
CNC(=S)N/N=C/c1ccc(-c2cccc(C(=O)O)c2)o1	-11.3	-4.6	-1.5%	?	-10.0	2.8	-0.9
CCCn1nnnc1NCc1cccc(OC)c1OCC	nt	-13.9	-1.2%	10.7%	20.4	-11.0	0.9
O=C(O)/C=C/C(=O)N1N=C(c2ccco2)CC1c1ccco1 (centres undefined)	-13.3	3.3	1.9%	16.3%	-4.2	-2.3	-1.6
O=C(Nc1cccc(-c2cn3ccccc3n2)c1)c1cnccn1	-1.3	6.5	1.4%	5.8%	-2.7	17.6	-0.5
Cc1cccc2sc(N(CCCN(C)C)C(=O)c3ccc(S(=O)(=O)N4CCc5ccccc5C4)cc3)nc12	-18.2	-19.0	3.6%	3.4%	8.3	-34.4	0.1
CCn1ccnc1CN1CCCC(CO)(Cc2cccc(OC)c2)C1 (centres undefined)	3.9	8.7	0.7%	2.0%	-1.5	-18.8	-4.7
NC(=O)OCC(O)COc1ccc(Cl)cc1 (centres undefined)	5.7	4.1	0.8%	nt	-1.8	-7.5	3.1
COc1ccc(-c2n[nH]c(=S)n2-c2ccccc2C)cc1OC	0.1	5.8	0.5%	-19.7%	-5.4	-8.2	1.5
COc1ccc(N2CCN(C(=O)c3ccc(CNS(=O)(=O)c4ccc(C)cc4)cc3)CC2)cc1	-13.3	6.1	-1.1%	18.9%	-17.1	-2.7	1.9
Cc1ccc(C)c(OCCC(=O)OCC(=O)Nc2cccnc2Cl)c1	19.6	nt	2.8%	nt	3.8	-10.4	3.3
COc1ccc(NC(=O)c2ccc(OCC3CCCO3)cc2)cc1OC (centres undefined)	1.0	2.8	2.1%	nt	-0.2	0.6	-1.5
C[C@@H]1CCC(=O)N(CC[C@H](Oc2ccccc2)c2ccccc2)CC1	-0.4	-23.7	0.6%	5.2%	1.0	-13.0	-2.5
Cn1c(=O)oc2cc(S(=O)(=O)NCCc3ccccc3)ccc21	-1.3	6.4	-1.6%	9.7%	3.3	0.6	-0.5
COc1cccc(CC2(CO)CCCN(Cc3ccc(OC(F)F)cc3)C2)c1 (centres undefined)	-2.0	nt	7.5%	nt	1.0	-9.9	-2.2
O=C(C[n+]1ccccc1)N/N=C/c1ccccc1Cl	-2.9	-6.0	0.2%	nt	-9.0	-0.9	5.0
O=C(Nn1cnc2ccccc2c1=O)c1ccccc1	6.0	1.3	0.4%	20.8%	-0.3	-7.9	-1.6
COc1ccc(-c2nnc(NC(=O)c3ccc(S(=O)(=O)N4CCCc5ccccc54)cc3)o2)cc1	-25.4	4.4	7.6%	12.2%	-14.2	-13.2	-0.2
CCn1c(SCC(=O)Nc2nnc(C)s2)nnc1C(C)NC(=O)c1ccccc1 (centres undefined)	1.4	-11.9	0.1%	-1.1%	-2.5	0.0	-2.1
CSCc1cc(N2CCCC2)nc(-c2ccccc2)n1	13.3	-1.4	-0.3%	3.6%	22.9	-27.4	-3.6
O=C(Nc1ccc(NC(=O)C2CC2)nc1)c1cccnc1	1.6	3.7	0.1%	4.5%	-1.2	-15.5	-0.3
The list continues:
SMILES	CtBP-E1A inh	TRPV1 potentiator	PINK1 expr mod	Sfp inh	Six1-Eya2 inh	D2 potentiator	D2 agonist
CC(=O)Nc1ccc(OCC(O)CNC2CCCC2)cc1 (centres undefined)	-15.6	2.9	4.1%	20.7%	-3.0	-4.1	-2.8
O=C(Nc1ccc(-c2ccccc2)cc1)c1ccccc1	9.7	21.5	2.0%	3.4%	0.0	-0.2	-5.4
COc1ccc(NC2CCCN(C(=O)CSc3ccccc3)C2)cc1 (centres undefined)	nt	1.5	1.8%	8.5%	-18.3	0.4	8.9
COC(=O)CSc1nc2c(cnn2-c2ccc(F)cc2)c(=O)[nH]1	0.5	12.3	-2.0%&0.2%	8.7%	3.6	-1.7	1.6
COc1ccccc1N1CCN(C(=O)c2cc(N3C(=O)C4C5CCC(C5)C4C3=O)ccc2Cl)CC1 (centres undefined)	5.2	?	6.6%	-11.3%	0.9	-8.2	0.1
CCn1c(-c2ccc(C)cc2)nn(CC(=O)NCCc2ccccc2)c1=S	7.7	9.8	2.8%	6.3%	0.4	-16.2	-4.2
COc1ccc(CN2CCN(C(=O)c3ccc(CNS(=O)(=O)c4ccc(C)cc4)cc3)CC2)c(OC)c1OC	nt	3.1	-1.3%	-4.9%	-4.3	-8.7	6.9
O=C(NCC1CCCN1S(=O)(=O)c1ccccc1)C(=O)NC1CC1 (centres undefined)	-0.2	3.7	-0.4%	nt	6.2	8.4	-1.3
COc1ccccc1CNS(=O)(=O)c1ccc(-c2cnc(C3CC3)o2)cc1	nt	3.9	1.6%&7.3%	-7.1%	6.4	-8.7	1.7
